# PABP polyA inh: PABP-poly(A) binding inhibition; hit rate 1% among 290,000; PABP-poly(A) RNA binding, fluorescence polarization; P11940; inhibition, % at 35 µM;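 active = 50% or more with normal probe brightness, or confirmed in later tests; inconclusive = above 50% with abnormal brightness, or retests that disagree; inactive = below 50% or failed in later tests; about a fifth of its hits are not listed in these tables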;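 also: calls also rest on retests at 20 µM and on dose response follow-up; controls were probe without protein and protein plus probe with vehicle; some compounds called inactive have numbers as strong as hits; many hits fall short of the cut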
# Target sequence (P11940 whole entry, looked up): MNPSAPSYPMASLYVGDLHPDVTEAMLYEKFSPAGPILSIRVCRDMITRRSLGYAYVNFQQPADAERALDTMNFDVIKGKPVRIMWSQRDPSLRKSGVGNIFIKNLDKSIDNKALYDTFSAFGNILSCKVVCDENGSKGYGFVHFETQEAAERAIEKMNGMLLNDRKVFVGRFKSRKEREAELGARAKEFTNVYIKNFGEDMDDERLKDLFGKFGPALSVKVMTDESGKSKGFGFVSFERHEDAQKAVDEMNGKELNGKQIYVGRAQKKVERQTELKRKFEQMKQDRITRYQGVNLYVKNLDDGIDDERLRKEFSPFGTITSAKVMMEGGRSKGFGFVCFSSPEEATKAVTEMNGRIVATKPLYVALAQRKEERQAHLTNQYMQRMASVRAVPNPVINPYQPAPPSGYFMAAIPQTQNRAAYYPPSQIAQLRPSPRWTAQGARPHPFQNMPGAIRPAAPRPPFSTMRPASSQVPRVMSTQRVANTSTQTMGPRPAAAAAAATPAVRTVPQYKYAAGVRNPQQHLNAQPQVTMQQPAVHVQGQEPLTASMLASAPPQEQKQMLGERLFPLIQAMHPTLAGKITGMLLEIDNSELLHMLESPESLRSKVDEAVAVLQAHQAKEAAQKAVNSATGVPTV
# eIF4H inh: inhibitors of RNA binding by human eIF4H; Q15056; eIF4H fluorescence polarization binding assay; inhibition, % at 35 µM; hit rate 0.94% among 290,000; AID 2012;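 active = 50% or more with normal probe brightness, or confirmed in later tests; inconclusive = above 50% with abnormal brightness, or retests that disagree; inactive = below 50% or failed in later tests; about a fifth of its hits are not listed in these tables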;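 also: calls also rest on retests at 20 µM and on dose response follow-up; 0% = protein and probe with vehicle and 100% = probe without protein; strong numbers were not always called active; many hits fall short of the cut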
# CSC inhib: blocks cancer stem cells. inhibition, % at 7.5 µM. cancer stem cell-like cells viability, luminescence. AID 2717. hit rate 1.1% among 300,000;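 active = mean at 75% or more and at least half the replicates too; inconclusive = mean and replicates disagree; tested in HMLE shEcad cells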;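 also: 0% = median of negative and 100% = median of positive control wells; the first replicate is given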
# HIV Env fusion: inhibitors of HIV Env-mediated cell fusion; hit rate 1.1% among 360,000; inhibition, % at 12.3 µM; HeLa-JRFL Env/CEM21 cell fusion, luciferase; AID 651610;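 active = mean replicate inhibition score of at least 50 and every replicate individually at or above 50; inconclusive = only one of the two criteria met; inactive = mean below 50 and not all replicates reaching 50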;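 also: 0% = plate neutral controls and 100% = maraviroc near 300 nM; one replicate is shown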
# Rce1 inhib: yeast Ras-converting enzyme inhibition. Q03530. yeast membranes, quenched prenylated peptide cleavage fluorescence. calls only. hit rate 0.27% among 290,000;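 active = fall in fluorescence gain of 50% or more versus controls, with final raw signal at or below 3038400; inconclusive = same 50% fall but final raw signal above 3038400; inactive = fall in fluorescence gain under 50%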;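 also: plate controls were neutral control wells for no effect and wells lacking membranes for full effect; tested at 10 µM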
# UUG fidelity: yeast start codon fidelity modulation. S. cerevisiae UUG-firefly luciferase reporter, luminescence/redox ratio. activity score, % at 18.7 µM. hit rate 0.13% among 350,000;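 active = replicate mean at a twofold rise or more, about +100% in these data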;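 also: firefly luciferase made from a UUG start codon reports start codon fidelity; reporter light over untreated wells divided by growth signal over untreated wells; some hits fall short of that in this replicate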
# MT1-MMP act inh: inhibitors of human MT1-MMP activation. HT1080 RFP-PRO-GFP cells, GFP/RFP ratio fluorescence, overnight; percent of plate control window, DMSO zero. GFP/RFP ratio change, % at 20 µM. hit rate 0.061% among 360,000;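 active = GFP/RFP ratio change of at least 30% with cell ATP level not reduced by more than half and red fluorescence within 50% of control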; also: strong numbers were not always called active
#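 Material: RFP-PRO-GFP reporter HT1080 cells. Dosing: single-point 20 µM compound, 1% DMSO. Controls: DMSO and RFP-L50D-GFP cell wells. Timing: cells overnight before dosing, compound overnight, 37 °C, 5% CO2. Measure: GFP/RFP fluorescence ratio.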
# MT1-MMP act inh RFP: also measured in MT1-MMP act inh; calls as there; RFP signal change, %; measured here: RFP expression control read;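 0 = vehicle wells; hits needed this value within 50% of zero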
# An asterisk follows results filed as active; i = inactive; ? = inconclusive; . = not tested or not shown.
SMILES,PABP polyA inh,eIF4H inh,CSC inhib,HIV Env fusion,Rce1 inhib,UUG fidelity,MT1-MMP act inh,MT1-MMP act inh RFP
O=C(OC(C(=O)Nc1ccc(Cl)cc1C(F)(F)F)c1ccccc1)c1c(Cl)cccc1Cl (configuration not stated),-6,-9,8,73*,i,.,-15,-11
CCOc1ccccc1NC(=O)C1CCC(CNc2c(N3CCCCC3)c(=O)c2=O)CC1 (configuration not stated),5,3,-10,6,i,3,5,2
O=C(N/N=C1\CCc2ccccc21)c1ccccc1Cl,-6,6,0,-39,i,-26,-1,3
CCCC(=O)Nc1nc2ccc(OCC)cc2s1,-1,-2,12,-136,i,-2,3,-6
O=C(CN1CCN(S(=O)(=O)c2ccc(Br)cc2)CC1)Nc1ccccc1C(=O)c1ccccc1,-1,-3,.,31,i,-14,-8,-17
COC(=O)c1[nH]c2ccccc2c1NC(=O)Oc1ccccc1,0,-3,-2,.,i,-14,-1,2
COc1ccccc1NS(=O)(=O)c1ccc(C)c(C(=O)Nc2ccc(S(=O)(=O)Nc3onc(C)c3C)cc2)c1,.,.,.,7,.,-3,3,2
CCCCCOC(=O)C(C)Sc1n[nH]c(=O)[nH]c1=O (configuration not stated),6,5,-7,4,i,.,4,3
CC(=O)Nc1ccc(C(=O)Nc2cccc(-c3cnc4ccccc4n3)c2)cc1,?,-32,.,-11,i,.,3,0
CC(C)CC1NC(=O)N(CC(=O)Nc2cccc(Br)c2)C1=O (configuration not stated),.,.,-3,.,.,-32,-2,5
O=C(OCCCc1cc2ccccc2c(=O)o1)c1ccc(F)cc1,.,.,2,-8,.,-11,2,2
O=C(Cn1[nH]c(=O)c2ccccc2c1=O)NC1CCN(Cc2ccccc2)CC1,-4,6,0,-97,i,1,5,5
CCCCn1c(N)c(N(CC(C)C)C(=O)c2cc(=O)[nH]c3ccccc23)c(=O)[nH]c1=O,.,.,-11,23,i,7,-4,2
COc1cc2c(cc1OC)CN(C(=O)c1ccc(S(=O)(=O)N3CCCC3)cc1)CC2,1,-17,4,5,i,.,-1,-4
CC1CN(c2nnnn2-c2ccccc2)CC(C)O1 (configuration not stated),2,-4,-11,.,i,-15,2,6
CCOCCCNC(=O)C(NC(=O)c1ccc2c(c1)OCO2)c1ccc(OC)cc1 (configuration not stated),5,-14,.,.,i,-11,8,1
Cc1cccc(N(CC(=O)NC2CCCC2)C(=O)c2csnn2)c1C,9,-3,-10,-3,i,-8,-2,-5
CCN(CC)c1nc2c(c(=O)n(C)c(=O)n2C)n1CC(=O)c1ccccc1,3,0,3,5,i,3,-4,1
Cc1ccc(CN(C(=O)c2ccc([N+](=O)[O-])cc2)C2CCS(=O)(=O)C2)o1 (configuration not stated),6,5,-12,8,i,-6,1,2
CCN(CC)c1c(C)nc2ccc(C(=O)NCc3ccc4c(c3)OCO4)cn12,.,.,.,18,.,-12,1,1
Oc1ccccc1N1CCN(c2nnnn2-c2ccccc2)CC1,4,0,-5,-10,i,-6,-2,1
CC(=O)Nc1ccc(CN2C(=O)C(C)(C)ON=C2c2ccc(NC(C)=O)cc2)cc1,.,.,.,-13,.,-13,4,6
Cc1c(/C=N/NC(=O)c2sc3ccccc3c2Cl)cnn1C,-2,-1,8,.,i,-16,0,1
N#Cc1ccc(CN2CCN(C(=O)c3cc(C4CC4)nn3-c3ccccc3)CC2)cc1,.,.,3,.,.,-11,3,-10
O=C(Nc1ccc(S(=O)(=O)N2CCCC2)cc1)C1CC(=O)N(c2ccccc2)C1 (configuration not stated),-15,-5,-4,5,.,.,0,2
COc1cc(NC(=O)CN2CCN(c3ccccc3O)CC2)c(C)cc1[N+](=O)[O-],1,-1,.,.,i,.,3,-5
Cc1nn(C)c(C(=O)Sc2ccccc2)c1[N+](=O)[O-],-6,-10,29,0,i,-21,3,7
COc1ccc2[nH]c(=O)c(-c3nnn(-c4ccccc4)n3)cc2c1,2,-8,-2,-95,i,-8,-1,-4
CCOC(=O)c1[nH]nc(-c2cc(CC)c(O)cc2O)c1-c1cscn1,-3,-10,13,.,i,-8,-10,-11
COc1ccc(OCCNC(=O)Nc2cc(F)c(F)cc2Cl)cc1,-10,-3,3,24,i,-4,-3,-5
Fc1ccc(NC(=S)NCc2cccs2)cc1,0,-4,-8,.,i,253*,.,.
COC(=O)C(C)(N)Cc1ccc(O)cc1 (configuration not stated),.,.,2,-8,.,10,-2,3
CCOC(=O)C(Cc1c[nH]c2ccccc12)NC(=O)CNC(C)=O (configuration not stated),10,5,-3,-59,i,-17,8,8
COC(=O)CC(NC(=O)c1ccc(C)cc1)c1ccc2c(c1)OCO2 (configuration not stated),6,15,.,-78,i,-3,0,1
CC(C)CC(=O)Nc1ccc(Cc2ccncc2)cc1,8,-9,-27,-2,i,-19,1,-4
O=C(c1ccc(Br)cc1)N1CCCC1,1,5,-15,-16,i,0,-6,-6
CCCCCC(=O)Nc1cc(S(=O)(=O)N2CCOCC2)ccc1N1CCCC1,-7,0,5,-12,i,5,-3,0
CCOC(=O)CC1C(C(=O)OCC)ON2OC(C(=O)OC)C(C(=O)OCC)C12 (configuration not stated),0,-4,15,-27,i,-4,-5,2
COC(=O)[C@H](Cc1ccccc1)NC(=O)N(C)Cc1ccccc1,-6,4,-4,-14,i,.,-2,-3
COc1ccc[nH]c1=O,6,-10,1,.,i,-21,-1,1
CC[C@@H](C)[C@H](NC(=O)OC(C)(C)C)c1nnc(S(=O)(=O)Cc2cc(C)ccc2C)o1,-4,-7,66,.,.,-6,4,1
CCCNC(=O)c1ccc(SC)cc1OC,-6,-8,-9,-106,i,-12,-4,3
CCCC(=O)N(CCN1CCOCC1)c1nc2c(OC)ccc(OC)c2s1,0,-6,-13,7,i,-7,3,3
CCOc1cc(C2C(C#N)=C(N)Oc3n[nH]c(-c4ccncc4)c32)cc([N+](=O)[O-])c1O (configuration not stated),6,10,-5,-19,i,.,7,-1
CN(C)CCN1C(=O)C(O)=C(C(=O)c2cc3ccccc3o2)C1c1cccc(Br)c1 (configuration not stated),-10,0,-1,-41,i,-17,-2,2
CCc1ccc(NC(=O)CNCc2ccc(OC)c(OC)c2)cc1,9,8,-6,12,i,-3,-2,0
CC12CCC=CC1=C(C=O)C1C2CCC2(C)C(O)CCC12 (configuration not stated),.,.,.,-28,.,-7,-2,-6
CC(C)c1ccc(S(=O)(=O)N2CCN(CCC(=O)Nc3ccc(N(C)C)cc3)CC2)cc1,0,-1,.,.,i,-3,-4,-9
O=C(COc1ccccc1)OCc1cc(-c2ccco2)on1,.,.,-3,9,.,-4,5,1
Cc1cccc(-n2ccnc2SCC(=O)O)c1C,-6,5,-6,13,i,-19,-2,0
CC(C)Sc1ncnc2[nH]ncc12,.,.,.,16,.,-5,-6,1
Cc1ccc(-c2noc(C3CCCN(C(=O)c4cccc(Cl)c4)C3)n2)o1 (configuration not stated),6,-7,2,-13,i,5,3,-1
Cc1ccc(NCc2nnc(SCC(=O)c3ccc4c(c3)OCCO4)o2)c(C)c1,5,-10,.,.,i,-18,6,-1
O=C(O)CCCCn1c(SCc2ccccc2Cl)nc2ccsc2c1=O,-4,5,.,13,i,.,-10,-5
COc1cc2c(cc1OC)CN(C(=O)C(C)(C)C)CC2,0,-5,-10,.,i,21,0,1
O=C(CCS(=O)(=O)c1ccccc1)Nc1nc2cc3c(cc2s1)OCO3,-6,4,32,22,i,.,-8,-3
C=CCN(c1ccccc1OC)S(=O)(=O)c1cccc(C(=O)OCC(=O)c2c[nH]c3ccccc23)c1,15,-5,7,10,i,.,-6,-12
COc1cc(/C=N/N2CCN(c3ccccc3OC)CC2)ccc1OC(C)=O,2,-12,-14,-17,i,-2,3,4
CNC(=O)c1[nH]nc2c1CCc1ccccc1-2,-11,-14,6,-12,i,.,6,13
O=C(CCC(=O)N1CCOc2ccccc21)Nc1cc(F)ccc1F,4,0,-6,19,i,-6,-4,-1

# As a working copy, 12 of the compounds above.
SMILES,PABP polyA inh,eIF4H inh,CSC inhib,HIV Env fusion,Rce1 inhib,UUG fidelity,MT1-MMP act inh,MT1-MMP act inh RFP
CCc1ccc(NC(=O)CNCc2ccc(OC)c(OC)c2)cc1,9,8,-6,12,i,-3,-2,0
CC12CCC=CC1=C(C=O)C1C2CCC2(C)C(O)CCC12 (configuration not stated),.,.,.,-28,.,-7,-2,-6
CC(C)c1ccc(S(=O)(=O)N2CCN(CCC(=O)Nc3ccc(N(C)C)cc3)CC2)cc1,0,-1,.,.,i,-3,-4,-9
O=C(COc1ccccc1)OCc1cc(-c2ccco2)on1,.,.,-3,9,.,-4,5,1
Cc1cccc(-n2ccnc2SCC(=O)O)c1C,-6,5,-6,13,i,-19,-2,0
CC(C)Sc1ncnc2[nH]ncc12,.,.,.,16,.,-5,-6,1
Cc1ccc(-c2noc(C3CCCN(C(=O)c4cccc(Cl)c4)C3)n2)o1 (configuration not stated),6,-7,2,-13,i,5,3,-1
Cc1ccc(NCc2nnc(SCC(=O)c3ccc4c(c3)OCCO4)o2)c(C)c1,5,-10,.,.,i,-18,6,-1
O=C(O)CCCCn1c(SCc2ccccc2Cl)nc2ccsc2c1=O,-4,5,.,13,i,.,-10,-5
COc1cc2c(cc1OC)CN(C(=O)C(C)(C)C)CC2,0,-5,-10,.,i,21,0,1
O=C(CCS(=O)(=O)c1ccccc1)Nc1nc2cc3c(cc2s1)OCO3,-6,4,32,22,i,.,-8,-3
C=CCN(c1ccccc1OC)S(=O)(=O)c1cccc(C(=O)OCC(=O)c2c[nH]c3ccccc23)c1,15,-5,7,10,i,.,-6,-12

# (listing goes on)
SMILES,PABP polyA inh,eIF4H inh,CSC inhib,HIV Env fusion,Rce1 inhib,UUG fidelity,MT1-MMP act inh,MT1-MMP act inh RFP
O=C(Cn1[nH]c(=O)c2ccccc2c1=O)NNC(=O)c1ccccc1,0,4,-4,-7,i,.,0,5
COc1ccc(C(=O)CSc2nnc(-c3cc(C)on3)o2)cc1,-4,1,-8,1,i,.,-2,0
COc1cccc2c(=O)n(CC(=O)N3CCC(C)CC3)ccc12,-14,-15,-6,1,i,-1,-3,-2
Cn1cc([C@@H]2C[C@H]3CN(C4CCCC4)C(=O)[C@]34CCCN24)c(-c2ccccc2)n1,5,0,-5,4,i,.,-1,1
CCN(CC)C(=O)c1cn(CCC#N)nc1-c1ccc2ccccc2c1,4,-7,-13,3,i,4,1,1
CC(=O)c1ccc(NC(=O)Nc2sc(NS(=O)(=O)c3ccccc3)nc2C)cc1,5,-1,-9,-25,i,-15,1,3
Cc1cc(F)ccc1S(=O)(=O)Nc1ccccc1C(=O)Nc1ccccc1N1CCOCC1,-14,-8,25,.,i,-7,-4,-16
CCc1nc(N)nc(N)c1-c1ccc(Cl)cc1,-8,-8,.,-43,i,-17,-1,1
COCCn1nnnc1C1(N(Cc2cc3cc(C)ccc3[nH]c2=O)CC2CCCO2)CCN(C)CC1 (configuration not stated),22,9,6,.,.,-4,-3,5
Cc1nc2nc(C)c(CCC(=O)NC3CCCCC3)c(C)n2n1,?,4,-12,3,.,.,1,4
Cc1cc(C)n(CCO)c(=O)n1,17,6,-8,-2,i,.,-5,4
CC(=O)Nc1nc(-c2ccc(-c3ccccc3)cc2)cs1,.,.,.,-63,.,-6,4,-6
C(=N\Nc1nc(N2CCOCC2)nc(N2CCOCC2)n1)/c1cccnc1,8,3,0,-3,i,-9,1,3

# Compound activity deposited in PubChem by several laboratories.

# This is a random part of the collection (roughly 2.9% active in at least one column).
